# High-throughput results (PubChem)
# A1 inh = caspase 3/7 activation in MEF A1-2A-BIM cells, primary screen, A1 inhibitor project, cell-based, luminescence, HTS | caspase activation, % (concentration not given with the values) | AID 2462, 2010 | 0.066% of 330,000 active | Caspase-Glo 3/7 luminescence, 3 h; percent of clofoctol response, vehicle zero;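 active means over half of replicate activation scores above 10%, or exactly half above 10 with the replicate mean above 10; inconclusive means replicate mean below 10 yet half the replicates above 10; inactive means over half of replicates below 10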;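 further: wells of about 30 µL received 50 nL stock; many hits fall short of the cut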
# UCH37 inh = inhibitors of human UCH37 deubiquitinase, primary screen, biochemical, Ub-AMC cleavage, fluorescence; Ubiquitin carboxyl-terminal hydrolase isozyme L5 (Homo sapiens), Q9Y5K5; purified proteasome/UCH37; inhibition, % (concentration not given with the values); 0.33% of 330,000 active; AID 588478, 2011;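 active means mean of two replicates above 20%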;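 further: 0% = compound-free wells with enzyme and 100% = wells lacking proteasome; stock transfer was 100 nL into about 20 µL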
# Target sequence (Q9Y5K5 whole entry, looked up): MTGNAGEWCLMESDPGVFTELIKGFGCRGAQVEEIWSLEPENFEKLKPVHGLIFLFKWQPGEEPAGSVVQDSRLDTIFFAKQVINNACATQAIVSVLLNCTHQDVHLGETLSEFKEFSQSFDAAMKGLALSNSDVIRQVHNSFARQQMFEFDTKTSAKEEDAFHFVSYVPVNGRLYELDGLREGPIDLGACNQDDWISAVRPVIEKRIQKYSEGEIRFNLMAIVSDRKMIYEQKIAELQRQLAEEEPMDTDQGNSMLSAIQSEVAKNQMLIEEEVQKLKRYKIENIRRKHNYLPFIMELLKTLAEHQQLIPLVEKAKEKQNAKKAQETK
#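 Material: Human UCH37 enzyme supplied as purified proteasome complex | Schedule: 30 min compound-proteasome preincubation then 25 min substrate reaction, room temperature | Detection: AMC fluorescence from Ub-AMC cleavage, excitation 355 nm, emission 460 nm | Benchmarks: Wells without proteasome as full block, compound-free enzyme plus substrate as uninhibited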
# E coli growth = E. coli growth inhibition, primary screen, OD600; Escherichia coli growth, 23 h; active compounds read low; OD600 absorbance (test concentration not listed); 0.21% of 330,000 active; AID 1053175, 2014;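 active means OD600 absorbance below the run mean of sample wells minus 3.6 SD, in any replicate, cut at about 0.56 in these data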;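 further: stock transfer was 300 nL into about 60 µL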
# MLL AF4-AF9 inh = inhibitors of AF4 peptide binding to AF9, primary screen, biochemical, AlphaScreen, biotin-AF4 peptide, FLAG-AF9, single point. inhibition, % at 10 µM. 0.47% of 350,000 active. Protein AF-9 (Homo sapiens), P42568;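 active means every replicate reaching a set inhibition limit, whatever the replicate mean, cut at about 25% in these data; inconclusive means mean inhibition reaches that limit but some replicates miss it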;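 further: 0% = plate neutral control median and 100% = total signal loss; the record names both 10 and 1 µM as test concentration; the first replicate is given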
# Target sequence (P42568 whole entry, looked up): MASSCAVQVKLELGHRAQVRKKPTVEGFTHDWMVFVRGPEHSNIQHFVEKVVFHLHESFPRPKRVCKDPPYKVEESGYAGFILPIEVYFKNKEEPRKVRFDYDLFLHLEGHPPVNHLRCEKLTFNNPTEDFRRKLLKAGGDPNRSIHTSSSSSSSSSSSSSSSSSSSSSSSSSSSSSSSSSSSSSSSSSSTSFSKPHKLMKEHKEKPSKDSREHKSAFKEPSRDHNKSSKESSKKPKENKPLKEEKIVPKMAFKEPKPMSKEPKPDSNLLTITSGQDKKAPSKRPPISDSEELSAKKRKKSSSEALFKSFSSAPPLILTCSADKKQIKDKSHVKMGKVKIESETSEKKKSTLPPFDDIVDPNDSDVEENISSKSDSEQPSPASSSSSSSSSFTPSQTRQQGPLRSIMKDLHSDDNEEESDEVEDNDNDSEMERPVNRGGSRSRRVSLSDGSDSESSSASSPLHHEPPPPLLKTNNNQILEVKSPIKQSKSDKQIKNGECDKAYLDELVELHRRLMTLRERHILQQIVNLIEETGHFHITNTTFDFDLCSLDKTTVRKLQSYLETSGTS
# Ecoli rRNA inh = reduced GFP signal of wild-type E. coli, primary screen, bacterial rRNA inhibitor project, GFP/RFP fluorescence, OD600, single point. E. coli WT GFP vs humanized-ribosome RFP mutants, 24 h; active compounds read low; DMSO median 0, no signal -100. AID 720706, 2013. GFP signal change (wild-type ribosome), % (no concentration beside the values). 1.6% of 350,000 active;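 active means significant combined selectivity score with lowered wild-type GFP, culture density cut under 30%, mutant RFP and density less affected; inactive means any of these conditions unmet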; further: one replicate is shown; some compounds called inactive have numbers as strong as hits
# T cruzi inh = inhibitors of intracellular T. cruzi growth, primary screen, luminescence, NIH3T3 host cells; T. cruzi beta-gal in NIH3T3, 90 h; inhibition, % (test concentration not listed); 1.4% of 300,000 active; AID 1885, 2009;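 active means mean inhibition across valid replicates above about 55%, limit read from the data; inconclusive means mean below that limit but half or more replicates reach it; inactive means mean below it, under half of replicates reach it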;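 further: signal also drops with host cell toxicity which is not excluded here; 0% = plate median of DMSO wells and 100% = zero luminescence signal; higher percent means less beta-gal luminescence so fewer parasites; stock transfer was 50 nL into about 50 µL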
# Beta apoptosis = inhibitors of cytokine-induced beta cell apoptosis, primary screen, luminescence; 0.8% of 300,000 active; protection from apoptosis, % (no concentration beside the values); INS-1E cytokine-induced death, ATP luminescence, 48 h; percent of positive-control rescue, neutral wells zero;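 active means all replicates at 75% or more, or half of them and the mean; inconclusive means half reach 75% but not the mean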;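 further: 0% = cytokine-treated negative control wells and 100% = positive control rescue; higher means more ATP so stronger rescue from cytokine killing; wells of about 40 µL received 100 nL stock; the first replicate is given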
# FGF22 binding = binders of human FGF22 protein, primary screen, FGF22 synaptogenesis inhibitor project, biophysical, thermal shift, single point. calls only at 9.99 µM. recombinant FGF22 thermal shift, SYPRO orange fluorescence; percent of sucrose octasulfate shift, DMSO zero. 1.5% of 340,000 active. Fibroblast growth factor 22 (Homo sapiens), Q9HCT0. AID 651658, 2012;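 active means melting point raised past a set limit in the mean and every replicate; inconclusive means no clear call; three in four hits are not shown here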
# Target sequence (Q9HCT0 whole entry, looked up): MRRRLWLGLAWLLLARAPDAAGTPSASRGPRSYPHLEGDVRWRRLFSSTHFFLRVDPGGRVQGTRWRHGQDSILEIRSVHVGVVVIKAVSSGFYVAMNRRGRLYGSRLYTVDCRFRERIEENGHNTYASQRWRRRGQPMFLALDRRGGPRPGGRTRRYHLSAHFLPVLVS
# Ecoli rRNA inh OD600 = recorded beside Ecoli rRNA inh, whose call it bears; OD600 change, %; measured here: OD600 growth;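 optical density of the mix in the first replicate; 0 = DMSO median and -100 = no signal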
# Ecoli rRNA inh RFP = second read-out of Ecoli rRNA inh, no call of its own (marks repeat the call); RFP signal change, %; measured here: RFP humanized mutant strains;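 first replicate; 0 = DMSO median and -100 = no signal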
# Active calls of the source: *; i = inactive; u = inconclusive; x = not tested or not shown. This is a subset; the hit share may differ from the screen's.
# Order of results: A1 inh, UCH37 inh, E coli growth, MLL AF4-AF9 inh, Ecoli rRNA inh, Ecoli rRNA inh OD600, Ecoli rRNA inh RFP, T cruzi inh, Beta apoptosis, FGF22 binding
- CCC(=O)Nc1ccc(NC(=O)c2cc3ccccc3o2)c(OC)c1
 : -6.0, x, x, 2.9, 17, 6, 3.2, 5, -3, i
- COc1ccc(Cl)cc1NC(=S)N1CCN(C(=O)c2ccco2)CC1
 : 0.0, -3.0, 0.68, x, x, x, x, -3, -14, x
- COc1ccc(NS(=O)(=O)c2cccc(C(=O)NC3CCN(Cc4ccccc4)CC3)c2)cc1
 : 1.7, 2.2, 0.68, 4.0, 8, -1, 2.2, 63*, 14, i
- O=C(c1ccc([N+](=O)[O-])cc1)N1CCOC12CCN(c1ncc(C(F)(F)F)cc1Cl)CC2
 : 2.1, -3.0, 0.78, x, x, x, x, 22, 9, x
- O=C(NC1CCN(Cc2ccccc2)C1)c1cc(COc2ccc(F)cc2F)on1 (centres undefined)
 : -0.1, -1.2, 0.65, -0.7, 2, 1, 4.0, u, 20, i
- Cc1ccc(-c2csc3nc(C)n(N)c(=O)c23)o1
 : -2.2, -1.0, 0.74, x, x, x, x, -6, -2, x
- O=C(COC(=O)/C=C/c1ccc(S(=O)(=O)N2CCOCC2)cc1)Nc1ccccc1F
 : 0.7, 3.1, 0.69, 1.7, 20, 14, 5.3, x, -2, i
- COc1ccc(NS(=O)(=O)c2cc(-c3cnc(C4CC4)o3)ccc2C)cc1
 : -0.4, 2.1, 0.69, -0.9, -7, -40, 0.1, -2, 17, i
- CC(=O)c1ccc(OCc2cc(C(=O)N3CCOCC3)no2)cc1
 : -0.5, 3.6, 0.68, -0.6, -2, 11, -4.3, 4, -3, i
- O=C(Nc1cc(Sc2nc3ccccc3s2)cc([N+](=O)[O-])c1)c1ccccc1F
 : -0.2, 2.5, 0.76, x, x, x, x, 65*, 6, x
- COC(=O)/C(=C/c1ccc(OC)cc1)NC(=O)c1ccco1
 : 0.9, 5.0, 0.72, x, x, x, x, -19, x, x
- COc1cccc(C(c2sc3ncnn3c2O)N2CCN(C(=O)c3ccco3)CC2)c1 (centres undefined)
 : -0.1, 2.8, 0.71, 2.5, 1, -1, 8.7, -18, 1, i
- CC(C)CCSc1nc2[nH]ncc2c(=O)[nH]1
 : -0.1, 4.9, 0.71, -6.1, -9, -4, -1.8, 5, -8, i
- Cc1cccc(N(CC(=O)NCCc2ccccc2)C(=O)CCC(=O)Nc2ccccn2)c1C
 : 0.7, 1.8, 0.63, -6.1, 6, 7, 1.3, 8, 3, i
- COC(=O)C1CCN(Cc2cn(Cc3ccccc3)nc2-c2cc3ccccc3o2)CC1
 : 0.2, 6.5, 0.68, 3.8, -6, -21, 27, 7, -1, i
- CC(C)C(c1nnnn1C1CCCCC1)N1CCc2ccccc2C1 (centres undefined)
 : 0.0, 4.1, 0.7, -32, 4, -4, -1.5, -3, -2, i
- CCOC(=O)[C@H]1[C@H]2COc3ccccc3[C@@H]2N2C(=O)CN(Cc3ccccc3)C(=O)[C@@]12C
 : -1.6, 0.0, x, 2.0, 2, 6, 2.0, x, -1, i
- O=C(O)c1cc(C(=O)C2CC2)c[nH]1
 : 0.0, 2.6, 0.67, -1.3, 11, 8, -0.8, 13, -5, x
- O=C(O)CC(NC(=O)/C(=C/c1ccccc1)NC(=O)c1ccccc1)c1ccccc1 (centres undefined)
 : -0.4, -0.4, 0.62, -9.7, 2, -6, 0.2, -7, -6, x
- CN(Cc1ccccc1Cl)C(=O)c1cnccc1C(F)(F)F
 : -0.2, 3.3, 0.7, 0.8, -6, -8, -0.6, 16, -5, i
- CCc1nnc(NC(=O)CSc2nc(N)c(NC(=O)c3ccc(OC)cc3)c(=O)[nH]2)s1
 : 0.7, -0.4, 0.72, -0.7, 8, 9, 1.4, -3, 2, i
- O=C(CN1CCOCC1)N1N=C(c2cccs2)CC1c1cccs1 (centres undefined)
 : -0.2, -4.9, 0.67, 1.1, 3, -5, -0.4, 5, -5, i
- COc1ccc(-c2noc(CN3CCC(Cc4ccccc4)CC3)n2)cc1
 : -0.3, 0.4, 0.67, -13, -11, -14, 17, -2, -1, i
- O=C(CN1CCOCC1)Nc1nc2ccc(F)cc2s1
 : 0.3, -1.2, 0.69, x, x, x, x, 1, -1, x
- CC(=O)Nc1ccccc1Oc1ccccc1
 : 0.2, 0.9, 0.71, -2.5, 7, 10, 0.5, -13, -4, i
- O=c1c2c(-c3ccc([N+](=O)[O-])cc3)csc2nc2n1CCC2
 : 0.5, 2.0, 0.7, x, x, x, x, -2, -7, x
- CC(C)c1ccc(NC(=O)Cc2cn(C)c3ccccc23)cc1
 : 0.0, 3.7, 0.68, 2.6, -21, -25, 0.7, -12, 4, x
- Cc1cccc(NC(=O)COC(=O)Cc2c[nH]c3ccccc23)c1C
 : 0.8, -1.9, 0.68, x, x, x, x, 0, -4, x
- OCCCc1ccc(O)c(O)c1
 : 2.2, 3.0, 0.78, -0.4, x, x, x, -10, -1, i
- COC(=O)c1c(C)oc(C)c1S(=O)(=O)NC(C)(C)C
 : 0.7, 3.4, 0.64, -0.5, 4, 8, -0.3, -12, 3, i
- COc1ccc(CNC(=O)CN(C(=O)CCC(=O)Nc2ccccn2)c2cccc(C)c2C)cc1
 : 1.8, 3.2, 0.56, 2.6, -9, -9, 0.2, 15, 0, i
- Cc1ccc(N=Cc2ccc[nH]2)c(O)c1
 : -1.7, 0.2, 0.7, x, x, x, x, 6, x, x
- COc1ccc(C)cc1S(=O)(=O)Nc1ccc(F)cc1
 : -0.2, -0.5, 0.74, -2.9, x, x, x, -4, 6, x
- CCCc1c(O)nc(SCCN(CC)CC)[nH]c1=O
 : -0.6, 5.6, 0.68, x, x, x, x, -13, -12, x
- CCCCOc1ccccc1C(=O)NNC(=S)NC(=O)c1ccccc1[N+](=O)[O-]
 : -1.1, x, x, -11, 4, 4, 1.9, 27, 67, i
- COc1cc(C(=S)N2CCOCC2)cc(OC)c1OC(=O)Cc1ccc(F)cc1
 : -1.0, -18, 0.7, x, x, x, x, -12, x, x
- CC(NC(=O)COC(=O)c1ccc([N+](=O)[O-])o1)c1ccccc1 (centres undefined)
 : 0.7, 26*, 0.63, -3.3, -9, 19, -0.1, x, -1, i
- COc1ccc(CCNS(=O)(=O)c2ccc3c(c2)NC(=O)CS3)cc1OC
 : 1.9, 4.0, 0.7, -13, 0, -1, -2.0, -5, -2, i
- CCCCOc1ccc(C(=O)NCC(=O)N2CCN(Cc3ccc4c(c3)OCO4)CC2)cc1
 : -0.8, 0.4, 0.68, 1.5, -10, -14, 4.5, 25, 1, x
- O=C(COC(=O)c1nc(Cl)ccc1Cl)NC(=O)c1ccccc1
 : 0.5, x, x, -2.3, 1, 8, -1.7, -3, 0, i
- CCn1nnc(NC(=O)c2ccc(Br)o2)n1
 : 0.4, 3.0, 0.69, -3.3, 7, 12, -0.5, -8, -2, i
- CCO[C@@H]1OC(C(=O)N2CCN(Cc3ccc4c(c3)OCO4)CC2)=C[C@H](c2coc3ccccc3c2=O)[C@H]1CCCO
 : 0.6, 0.2, x, -1.8, -8, -11, 3.6, 24, 0, i
- Cn1c(CCNC(=O)c2ccco2)nc2cc(NC(=O)c3ccccc3)ccc21
 : -9.1, 4.1, 0.67, -1.0, 4, 8, -0.1, -15, 4, i
- COc1cccc(CN2CCC(n3nccc3NC(=O)CCCc3ccccc3)CC2)c1O
 : 1.0, 3.7, 0.71, 4.7, 2, 6, 3.4, 17, 2, i
- c1ccc(Cn2c(SCc3nc4ccccc4s3)nnc2-c2ccco2)cc1
 : -0.8, 0.4, 0.71, x, x, x, x, x, -8, x
- Cc1ccc([N+](=O)[O-])cc1S(=O)(=O)N1CCNCC1
 : 0.0, -0.1, 0.66, 1.4, 10, 10, -2.9, 15, -8, i
- Cn1c(=O)c2cc3ccccc3nc2n(C)c1=O
 : 0.8, -87, 0.66, x, 18, 5, 2.5, -3, 0, i
- O=C(O)C1CC=CCC1C(=O)Nc1ccc(F)c(F)c1 (centres undefined)
 : 0.0, 1.5, 0.69, x, x, x, x, 2, -5, x
- COc1ccc(NC(=O)Nc2sc(=S)n(C)c2C)cc1
 : -1.9, 6.8, 0.73, 6.2, 3, 5, 0.0, -24, 6, i
- O=C(CCS(=O)(=O)c1ccccc1)Nc1ncc([N+](=O)[O-])s1
 : -0.5, 11, 0.6, -4.1, -22*, -2.5*, 5.5*, -24, -24, i
- O=C1OCCN1c1ccccc1
 : x, 2.1, 0.72, 6.7, 7, 17, -2.3, x, x, i
- CCCOc1ccc(N2C(=O)CC(N(Cc3ccco3)C(C)=O)C2=O)cc1 (centres undefined)
 : 0.3, 3.4, 0.7, -1.8, 17, 12, -2.3, -16, -6, i
- CCOc1cc(N2CCOCC2)c(OCC)cc1NC(C)C(=O)N1CCN(CC)CC1 (centres undefined)
 : x, 1.8, 0.67, 5.6, 10, 10, 11, 0, x, i
- CCOC(=O)[C@H]1[C@H]2COc3ccc(OC)cc3[C@@H]2N2C(=O)CN(Cc3ccc(F)cc3)C(=O)[C@@]12C
 : 1.2, -0.5, x, 2.6, -2, -9, 13, x, -4, i
- CC(NC(=O)c1cc(S(=O)(=O)N(C)C)ccc1Cl)c1ccc(-n2ccnc2)cc1 (centres undefined)
 : 2.0, 0.4, 0.71, 0.0, 10, 9, -1.2, -5, -7, i
- Cc1cnc(NC(=O)COc2ccccc2Cl)s1
 : -13, 0.2, 0.69, x, x, x, x, 2, -13, x
- O=C(CN1C(=O)CCS(=O)(=O)c2ccccc21)Nc1ccc(Cl)cc1
 : 1.0, 1.1, 0.64, -11, -1, 6, -1.4, 2, 0, i

# Quoted from the listing.
# `CCOc1cc(N2CCOCC2)c(OCC)cc1NC(C)C(=O)N1CCN(CC)CC1` (centres undefined) – Ecoli rRNA inh RFP: 11
# `CC(NC(=O)c1cc(S(=O)(=O)N(C)C)ccc1Cl)c1ccc(-n2ccnc2)cc1` (centres undefined) – Ecoli rRNA inh: 10
# `Cc1ccc([N+](=O)[O-])cc1S(=O)(=O)N1CCNCC1` – MLL AF4-AF9 inh: 1.4

# Full records as entered above. Values in the order: A1 inh	UCH37 inh	E coli growth	MLL AF4-AF9 inh	Ecoli rRNA inh	Ecoli rRNA inh OD600	Ecoli rRNA inh RFP	T cruzi inh	Beta apoptosis	FGF22 binding
# Profile of O=C(CN1C(=O)CCS(=O)(=O)c2ccccc21)Nc1ccc(Cl)cc1 = 1.0	1.1	0.64	-11	-1	6	-1.4	2	0	i
# Profile of CCOc1cc(N2CCOCC2)c(OCC)cc1NC(C)C(=O)N1CCN(CC)CC1 (centres undefined) = x	1.8	0.67	5.6	10	10	11	0	x	i
